# AF4-AF9 inh = blocks AF4 peptide binding to human AF9; P42568; AID 651704; inhibition, % at 10 µM; AlphaScreen, biotin-AF4 peptide binding to FLAG-AF9; hit rate 0.47% among 350,000;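 active = every replicate reaching a set inhibition limit, whatever the replicate mean, cut at about 25% in these data; inconclusive = mean inhibition reaches that limit but some replicates miss it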;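 note: 0% = plate neutral control median and 100% = total signal loss; the record names both 10 and 1 µM as test concentration; the first replicate is given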
# Target sequence (P42568 whole entry, looked up): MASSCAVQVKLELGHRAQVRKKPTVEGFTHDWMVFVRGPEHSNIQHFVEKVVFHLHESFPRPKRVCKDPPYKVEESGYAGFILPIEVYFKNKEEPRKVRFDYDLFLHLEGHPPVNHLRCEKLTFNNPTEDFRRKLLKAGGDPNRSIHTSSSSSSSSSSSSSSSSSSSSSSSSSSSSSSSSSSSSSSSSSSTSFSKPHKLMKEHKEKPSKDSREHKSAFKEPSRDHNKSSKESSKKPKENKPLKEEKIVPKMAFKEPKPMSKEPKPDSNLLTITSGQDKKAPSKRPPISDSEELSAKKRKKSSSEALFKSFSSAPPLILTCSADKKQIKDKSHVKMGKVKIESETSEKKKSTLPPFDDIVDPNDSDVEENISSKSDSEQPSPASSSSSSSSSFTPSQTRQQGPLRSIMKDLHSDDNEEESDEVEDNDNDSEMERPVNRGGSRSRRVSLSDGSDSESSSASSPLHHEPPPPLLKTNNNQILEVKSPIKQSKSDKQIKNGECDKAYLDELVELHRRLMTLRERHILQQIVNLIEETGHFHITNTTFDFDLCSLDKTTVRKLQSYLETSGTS
# ALR inh = blocks human ALR sulfhydryl oxidase activity. P55789. purified ALR, DTT oxidation, H2O2 HRP-luminol luminescence. inhibition, % (test concentration not listed). hit rate 3.8% among 290,000;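 active = mean and each replicate at 75% or more; inconclusive = only one of the two met; inactive = neither met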;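 note: stock transfer was 7.5 nL into about 7.5 µL; 0% = neutral wells and 100% = wells with inactivated enzyme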
# rRNA inh HTS = selective bacterial rRNA inhibition in E. coli; hit rate 1.6% among 350,000; E. coli WT GFP vs humanized-ribosome RFP mutants, fluorescence, 24 h; stronger effect = lower value; DMSO median 0, no signal -100; GFP signal change (wild-type ribosome), % (test concentration not listed);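 active = significant combined selectivity score with lowered wild-type GFP, culture density cut under 30%, mutant RFP and density less affected; inactive = any of these conditions unmet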; note: one replicate is shown; some compounds called inactive have numbers as strong as hits
# Vif TR-FRET = inhibitors of Vif binding to APOBEC3G peptide, primary screen, biochemical, TR-FRET, GST-Vif 1-94, biotin-A3G peptide, dose response retest (AID 1117319). hit rate 0.57% among 260,000. one-dose inhibition, %; IC50 in µM for titrated hits. TR-FRET GST-Vif / biotin-A3G peptide binding; higher % means a stronger effect; test concentration not given here; strong numbers were not always called active;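 active = above the screen mean plus three standard deviations and confirmed in dose response; inconclusive = results disagree or hit not tested in dose response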;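 note: Vif residues 1-94 fused to GST binding biotinylated APOBEC3G peptide 110-148; 0% = full assay without inhibitor and 100% = GST in place of GST-Vif; retest series ran down from 100 µM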
# FGF22 binding = binders of recombinant human FGF22 by thermal shift; hit rate 1.5% among 340,000; AID 651658; calls only at 9.99 µM; SYPRO orange fluorescence; percent of sucrose octasulfate shift, DMSO zero; Q9HCT0;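 active = melting point raised past a set limit in the mean and every replicate; inconclusive = no clear call; three in four hits are not shown here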
# HNF4A DNA FP = change in binding of human HNF4 alpha to DNA; P41235; HNF4a-FITC DNA binding, fluorescence polarization, 1 h; activity change, % at 10 µM; hit rate 0.3% among 360,000; AID 1224865; in the data active = activity change above about 30%, passing the limit was not always enough;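 note: controls were the assay level and a saturating level of protein; the project sought stronger binding though the title names inhibitors; some compounds called inactive have numbers as strong as hits; positive values seem to mean higher polarization but the record does not say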
# Target sequence (P41235 whole entry, looked up): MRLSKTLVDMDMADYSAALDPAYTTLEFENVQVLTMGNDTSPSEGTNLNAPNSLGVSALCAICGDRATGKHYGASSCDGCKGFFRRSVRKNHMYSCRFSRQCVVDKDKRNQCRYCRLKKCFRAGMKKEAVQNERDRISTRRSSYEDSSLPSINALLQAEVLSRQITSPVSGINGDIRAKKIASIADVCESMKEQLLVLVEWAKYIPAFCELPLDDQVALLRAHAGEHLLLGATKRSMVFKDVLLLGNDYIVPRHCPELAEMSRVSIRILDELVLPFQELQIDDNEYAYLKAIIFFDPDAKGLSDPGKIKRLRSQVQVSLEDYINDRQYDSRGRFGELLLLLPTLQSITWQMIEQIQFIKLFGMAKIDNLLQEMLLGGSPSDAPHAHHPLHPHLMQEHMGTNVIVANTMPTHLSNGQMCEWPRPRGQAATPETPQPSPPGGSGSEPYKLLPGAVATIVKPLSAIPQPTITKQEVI
# E coli growth = inhibitors of Escherichia coli growth. OD600, 23 h; stronger effect = lower value. AID 1053175. hit rate 0.21% among 330,000. OD600 absorbance (test concentration not listed);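 active = OD600 absorbance below the run mean of sample wells minus 3.6 SD, in any replicate, cut at about 0.56 in these data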;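 note: stock transfer was 300 nL into about 60 µL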
# rRNA inh HTS OD600 = recorded beside rRNA inh HTS, whose call it bears; OD600 change, %; measured here: OD600 growth;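 optical density of the mix in the first replicate; 0 = DMSO median and -100 = no signal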
# rRNA inh HTS RFP = also measured in rRNA inh HTS; calls as there; RFP signal change, %; measured here: RFP humanized mutant strains;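 first replicate; 0 = DMSO median and -100 = no signal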
# * hit, by the source's call; i = inactive; ? = inconclusive; . = no result given; & = joins results of further samples. The list is partial; count on the stated rates, not on these rows.
SMILES,AF4-AF9 inh,ALR inh,rRNA inh HTS,rRNA inh HTS OD600,rRNA inh HTS RFP,Vif TR-FRET,FGF22 binding,HNF4A DNA FP,E coli growth
Cc1ccc(OCC(=O)NCc2ccc3c(c2)OCO3)c([N+](=O)[O-])n1,-2.1,-6.9,-4.1,-9.8,-5.2,8.2%,i,2.5,0.702
COc1ccc2c3c(n(C)c2c1)[C@H](CO)N(C(=O)NC(C)C)CC31CCN(CC2CC2)CC1,11.2,.,5.9,5.5,-1.9,.,i,.,.
CCOC(=O)C1=C(C)Nc2nc(SCC(=O)OC)nn2C1c1cc(F)cc(F)c1 (stereo not drawn),-0.6,-10.9,-5.8,-10.7,2.3,-3.4%&-2.8%,i,1.1&0.9,0.68
O=C(O)CCC(=O)NNC(=O)c1ccc([N+](=O)[O-])cc1,-35.7,.,6.9,0.1,-3.2,1.1%,i,-2.0,0.697
COc1ccccc1/C=C/C=N/n1c(-c2ccccc2)n[nH]c1=S,3.9,4.9,-10.6,0.8,7.0,.,i,-0.7,.
CCCCN(C)CCCNC(=O)c1cn(CC)c2ccc(S(=O)(=O)N3CCOCC3)cc2c1=O,-2.0,-2.1,4.8,5.1,-3.5,.,i,-0.3,0.705
C[C@@H]1CN([C@H](C)CO)C(=O)c2cc(NC(=O)C3CC3)ccc2O[C@@H]1CN(C)C(=O)Nc1ccc2c(c1)OCO2,-4.9,.,-1.3,9.8,-3.0,.,i,.,.
C[C@@H]1CN([C@H](C)CO)C(=O)c2cc(NC(=O)Nc3ccc(F)cc3)ccc2O[C@@H](C)CCCCO[C@@H]1CN(C)C(=O)CCCN(C)C,4.2,.,2.0&10.0,9.9&4.4,-3.1&0.1,.,i,.,.
COCOc1cc(O)c2c(=O)c(OCOC)c(-c3ccc(OCOC)c(OCOC)c3)oc2c1,16.1,14.2,.,.,.,.,i,-3.5,0.707
COn1c(SCc2ccc(Cl)cc2)nc2ccccc2c1=O,.,-5.4,.,.,.,6.3%,.,5.4,0.725
Cc1ccc2c(c1)nnn2C1CCN(S(=O)(=O)c2ccc3ccccc3c2)CC1,.,-8.0,.,.,.,0.7%,.,-0.9,0.689
Cc1ccc2[nH]cc(CCNC(=O)Nc3ccccc3)c2c1,.,98.1*,.,.,.,6.3%,.,2.8,0.634
C[C@H](CO)N1C[C@H](C)[C@@H](CN(C)CC2CC2)Oc2c(NC(=O)Nc3ccc4c(c3)OCO4)cccc2C1=O,8.1,.,0.2,1.0,0.9,.,i,.,.
COC(=O)c1ccc(/C=C2\Oc3ccccc3NC2=O)cc1,3.0,-3.5,12.8,8.3,12.5,4.1%,i,4.6,0.663
COC(=O)c1ccc(C2/C(=C(/O)c3ccc4c(c3)CC(C)O4)C(=O)C(=O)N2CCN2CCOCC2)cc1 (stereo not drawn),-1.9,73.5,-5.5,-10.7,-2.4,.,i,-0.8,0.71
C/C=C/c1ccc([C@H]2[C@@H](CO)N3C(=O)CN(C(=O)Nc4cccc(OC)c4)C[C@@H]23)cc1,-0.1,.,-3.8,-0.2,-3.2,.,i,.,.
Cc1cc2c(c(=O)o1)[C@@]1(C(=O)N(C)c3ccccc31)C1=C(CCCC1=O)O2,-1.8,.,13.8,9.6,-2.5,.,i,.,.
COc1ccc(OCCOC(=O)CNS(=O)(=O)c2ccc(SC)c([N+](=O)[O-])c2)cc1,0.3,-1.7,8.3,8.6,0.2,-0.8%,i,2.4,0.71
COc1ccc(S(=O)(=O)n2ccc(C(C)Oc3ccc(-c4ccccc4)c(F)c3)n2)cc1 (stereo not drawn),.,-0.9,.,.,.,3.7%,.,-0.4,0.708
CC(=O)c1ccc(NC(=O)CN2C(=O)NC3(CCc4ccccc43)C2=O)cc1 (stereo not drawn),-0.8,53.8,-5.7,-2.9,-0.8,.,i,-2.2,0.697
COc1ccc(C2(O)C(=O)Nc3ccccc32)cc1 (stereo not drawn),-0.2,-1.7,15.5,13.0,3.0,-3.4%,i,1.3,0.644
O=C(C[C@@H]1CC[C@@H](NC(=O)CCN2CCCCC2)[C@@H](CO)O1)NCc1ccc(Cl)c(Cl)c1,1.2,.,2.5,-3.9,0.6,.,i,.,.
Cc1nc(SCC(=O)NC(C)c2ccccc2)c2oc3ccccc3c2n1 (stereo not drawn),.,-0.5,.,.,.,-1.9%,.,4.2,0.651
Cc1ccc(OCC(=O)NC(=S)Nc2cccc(NC(=O)c3ccccc3Cl)c2)cc1,4.8,-0.4,-19.5,-27.9,-4.2,-28.3%,i,4.5,0.686
COn1c(-c2ccc(C)cc2)nc2ncccc21,0.0,-4.5,1.2,5.8,0.2,-0.7%,i,2.3,0.657
COCCNC(=O)C[C@@H]1C[C@H]2c3cc(NC(=O)NC4CCCCC4)ccc3O[C@H]2[C@H](CO)O1,0.2,.,2.0,0.1,-2.6,.,i,.,.
O=C(NCc1ccccc1)c1cc(C2COCCN2C(=O)OCCF)on1 (stereo not drawn),0.7,.,.,.,.,.,i,-0.9,.
COCC(=O)N(C)C[C@@H]1[C@H](c2ccc(-c3cccnc3)cc2)[C@@H](CO)N1C(C)=O,-0.3,.,2.0,4.0,0.4,.,i,.,.
Cc1cc(C)cc(Nc2c3c(nc4ncnn24)CCC3)c1,-2.3,-9.8,-7.1,-12.4,-1.9,.,i,1.8,0.673
COc1ccccc1S(=O)(=O)Nc1ccc2c(c1)C(=O)N(C)C[C@H](OC)[C@H](C)CN[C@@H](C)CO2,-2.2,.,3.4,9.1,0.0,.,i,.,.
CCOc1ccc(S(=O)(=O)NCc2ccc3c(c2)OCO3)cc1C(=O)O,-3.3,4.0,24.3,21.0,5.0,16.0%,i,-3.1,0.694
CC1CCCCC1n1c(=S)[nH]c2ccccc2c1=O (stereo not drawn),.,65.5,.,.,.,29.1%,.,-2.9,0.635
COC(=O)c1ccccc1NC(=O)N1CCN(S(=O)(=O)c2ccc(Cl)cc2)CC1,.,-14.5,.,.,.,-2.1%,.,-1.4,0.704
O=C(Nc1ccccc1)OCC1CCCO1 (stereo not drawn),-1.1,3.3,2.6,6.8,-1.9,.,i,0.6,0.651
O=[N+]([O-])c1ccc(Sc2cccc3cccnc23)c2cccnc12,0.3,-7.9,30.5,11.9,-0.8,-1.2%,i,-4.3,0.71
COc1ccc(NC(=O)N(C)C[C@@H]2Oc3ccc(NC(=O)CCN4CCOCC4)cc3C(=O)N([C@H](C)CO)C[C@H]2C)cc1,-1.8,.,0.2,8.6,-3.1,.,i,.,.
Cc1ccc(NC(=S)NC(=O)/C=C/c2ccc(Cl)cc2)cc1,-0.4,-6.2,.,.,.,-6.0%,i,-2.6,0.704
COc1ccc(-c2nnco2)cc1OC,.,.,.,.,.,0.0%,.,-2.6,0.638
Cc1noc(C)c1S(=O)(=O)NC(=O)C1(C)CCN1C(=O)CC(c1ccccc1)c1ccccc1 (stereo not drawn),-4.9,.,16.4,29.9,-1.6,.,i,3.0,.
CNC(=O)C[C@H]1CC[C@@H]2[C@H](COC[C@H](O)CN2Cc2ccncc2)O1,-1.6,.,3.5,3.6,6.3,.,i,.,.
C[C@@H]1CCCCO[C@@H](CN(C)Cc2ccccc2)[C@@H](C)CN([C@@H](C)CO)C(=O)c2cc(NC(=O)c3ccncc3)ccc2O1,0.2,.,0.0,9.5,-2.9,.,i,.,.
COc1cccc(C(=O)O/N=C/c2ccc(Sc3ccc(C)cc3)nc2)c1,.,-1.2,.,.,.,0.5%,.,-2.0,.
Cc1nc2ccc(NS(=O)(=O)c3c(C)c(C)cc(C)c3C)cc2s1,.,-10.8,.,.,.,20.3%,.,0.9,0.719
COCC(=O)N(C)C[C@@H]1Oc2cc(-c3cncnc3)ccc2S(=O)(=O)N([C@H](C)CO)C[C@@H]1C,-0.5,.,1.0,-2.5,-1.3,.,i,.,.
CCOc1cccc(/C=C/c2ccc3ccccc3n2)c1OC(C)=O,14.5,14.4,-29.7,-30.8,1.8,-6.3%,i,3.7,0.673
OC[C@@H]1CN(Cc2cccs2)C[C@H](n2cnc3c(N4CCN(c5ccccc5)CC4)ncnc32)O1,8.8,.,-3.7,-18.4,31.7,.,.,3.3,.
O=C(O)c1ccc(Cl)c(S(=O)(=O)NCc2ccco2)c1,.,-8.1,.,.,.,13.8%,.,-4.4,0.757
CCCn1c(SCC(=O)N2c3ccccc3Sc3ccccc32)nc2ccccc21,-3.5,5.9,11.4,13.7,10.4,-2.9%,i,0.7,0.758
C[C@@H]1CN([C@H](C)CO)C(=O)c2cccc(NC(=O)NC3CCCCC3)c2O[C@@H]1CN(C)Cc1ccc(Cl)c(Cl)c1,2.4,.,-9.8,-15.8,2.3,.,i,.,.
Cc1nc(-c2ccc(NC(=O)c3ccco3)cc2)cs1,1.3,-6.6,-6.5,-3.1,11.3,-8.0%,i,-1.9,0.583
CCOC(=O)c1nc2ccccc2c(C)c1C,2.4,.,-4.0,-9.3,-6.9,.,i,3.1,0.668
O=c1c2cnn(-c3ccccc3)c2ncn1Cc1ccccc1F,2.5,-1.8,1.8,5.3,-3.2,1.0%,i,-2.3,0.725
CNC(=O)C[C@H]1CC[C@H]2[C@H](COc3ccc(NC(=O)Nc4ccc(C)cc4)cc3C(=O)N2C)O1,-0.7,.,1.8,-3.3,4.6,.,i,.,.
C/C(=N\NC(=O)c1ccn(C)n1)c1ccc(NC(=O)c2cccc(F)c2)cc1,-10.6,-0.2,-4.0,9.9,-4.7,5.0%,i,2.0,.
CCc1nc2c(n1O)CCc1nonc1-2,.,1.3,.,.,.,?,.,-4.1,0.664
CC(=O)NS(=O)(=O)c1ccc(NC(=O)c2cccc(OCc3c(C)noc3C)c2)cc1,-3.0,-4.2,20.1,11.4,2.0,0.3%,i,-1.6,0.696
CNC(=O)C1Cc2c(-c3cccc(F)c3)ccnc2O1 (stereo not drawn),-1.0,.,0.4,-1.5,-1.9,.,i,4.3,.
CC(NC(=O)c1ccc2nc(Cc3cccc(Cl)c3)oc2c1)c1ccncn1 (stereo not drawn),-1.7,.,-4.6,-7.7,-5.0,0.5%,i,-1.7,.
COc1cc(C2=NOC(C(=O)Nc3ccc4c(c3)OCO4)C2)cc(OC)c1OC (stereo not drawn),3.9,-40.6,1.3,-2.0,1.0,3.2%,i,-2.4,0.689
O=C(O)CCn1c(SCCOc2ccccc2)nc2ccccc21,3.9,3.1,-8.3,-7.0,-2.1,9.6%,i,-1.5,0.69
# (listing goes on)
SMILES,AF4-AF9 inh,ALR inh,rRNA inh HTS,rRNA inh HTS OD600,rRNA inh HTS RFP,Vif TR-FRET,FGF22 binding,HNF4A DNA FP,E coli growth
CC1CCCC(C)N1/N=C/c1cccc(Br)c1 (stereo not drawn),-22.2,-3.6,10.3,3.1,1.5,1.5%,i,-4.1,.
C[C@@H]1CN([C@@H](C)CO)C(=O)Cc2cc(NC(=O)Nc3ccc4c(c3)OCO4)ccc2O[C@H]1CN(C)CC1CCCCC1,26.8*,.,-4.4,1.3,-1.9,.,i,.,.
COc1ccc(NC(=O)N2CCCCN3[C@H](C2)[C@H](c2ccc(C#Cc4ccccn4)cc2)[C@@H]3CO)cc1,-4.9,.,0.4,9.8,-1.6,.,i,.,.
COc1ccc(NC(=O)N(C)C[C@H]2Oc3ccc(NC(=O)NC4CCCCC4)cc3CC(=O)N([C@H](C)CO)C[C@H]2C)cc1,-5.1,.,1.9,1.9,2.0,.,i,.,.
CN(CC(=O)NCc1ccc(F)cc1)S(=O)(=O)c1ccc2c(c1)n(C)c(=O)c(=O)n2C,-2.8,-2.5,-1.0,5.7,-0.9,-8.2%,i,-0.1,0.722

# Compound activity from PubChem BioAssay.
